# RanGTP-Imp inh – disruptors of Ran-importin-beta complex formation – biochemical, FRET, CFP-Ran, YFP-importin-beta, homogeneous, primary screen | 1.1% of 300,000 active | cell-free CFP-Ran/YFP-importin-beta FRET ratio | AID 2216 | inhibition, % (test concentration not listed);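 active = most replicates above 15%; inconclusive = exactly half above 15%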;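 note: 0% = DMSO wells and 100% = Ran loaded with GDP instead of GTP; wells of about 40 µL received 100 nL stock; the first replicate is given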
# T cruzi repl – T. cruzi replication inhibition; T. cruzi beta-gal in NIH3T3, luminescence, 90 h; inhibition, % (test concentration not listed); 1.4% of 300,000 active;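 active = mean inhibition across valid replicates above about 55%, limit read from the data; inconclusive = mean below that limit but half or more replicates reach it; inactive = mean below it, under half of replicates reach it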;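 note: signal also drops with host cell toxicity which is not excluded here; 0% = plate median of DMSO wells and 100% = zero luminescence signal; higher percent means less beta-gal luminescence so fewer parasites; stock transfer was 50 nL into about 50 µL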
# Vif A3G – inhibitors of Vif binding to APOBEC3G peptide, primary screen, biochemical, TR-FRET, GST-Vif 1-94, biotin-A3G peptide, dose response retest (AID 1117319) | TR-FRET GST-Vif / biotin-A3G peptide binding; higher % means a stronger effect; test concentration not given here; strong numbers were not always called active | inhibition, %, or IC50 in µM where a hit was titrated | 0.57% of 260,000 active;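 active = above the screen mean plus three standard deviations and confirmed in dose response; inconclusive = results disagree or hit not tested in dose response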;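 note: Vif residues 1-94 fused to GST binding biotinylated APOBEC3G peptide 110-148; 0% = full assay without inhibitor and 100% = GST in place of GST-Vif; retest series ran down from 100 µM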
# Ecoli rRNA inh – inhibitors of bacterial rRNA selective over humanized ribosomes. E. coli WT GFP vs humanized-ribosome RFP mutants, fluorescence, 24 h; active compounds read low; DMSO median 0, no signal -100. GFP signal change (wild-type ribosome), % (test concentration not listed). 1.6% of 350,000 active. AID 720706;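 active = significant combined selectivity score with lowered wild-type GFP, culture density cut under 30%, mutant RFP and density less affected; inactive = any of these conditions unmet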; note: one replicate is shown; some compounds called inactive have numbers as strong as hits
# AF4-AF9 inh – inhibitors of human MLL-AF4/AF9 interaction. AlphaScreen, biotin-AF4 peptide binding to FLAG-AF9. inhibition, % at 10 µM. 0.47% of 350,000 active;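 active = every replicate reaching a set inhibition limit, whatever the replicate mean, cut at about 25% in these data; inconclusive = mean inhibition reaches that limit but some replicates miss it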;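 note: 0% = plate neutral control median and 100% = total signal loss; the record names both 10 and 1 µM as test concentration; the first replicate is given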
# Target sequence (P42568 whole entry, looked up): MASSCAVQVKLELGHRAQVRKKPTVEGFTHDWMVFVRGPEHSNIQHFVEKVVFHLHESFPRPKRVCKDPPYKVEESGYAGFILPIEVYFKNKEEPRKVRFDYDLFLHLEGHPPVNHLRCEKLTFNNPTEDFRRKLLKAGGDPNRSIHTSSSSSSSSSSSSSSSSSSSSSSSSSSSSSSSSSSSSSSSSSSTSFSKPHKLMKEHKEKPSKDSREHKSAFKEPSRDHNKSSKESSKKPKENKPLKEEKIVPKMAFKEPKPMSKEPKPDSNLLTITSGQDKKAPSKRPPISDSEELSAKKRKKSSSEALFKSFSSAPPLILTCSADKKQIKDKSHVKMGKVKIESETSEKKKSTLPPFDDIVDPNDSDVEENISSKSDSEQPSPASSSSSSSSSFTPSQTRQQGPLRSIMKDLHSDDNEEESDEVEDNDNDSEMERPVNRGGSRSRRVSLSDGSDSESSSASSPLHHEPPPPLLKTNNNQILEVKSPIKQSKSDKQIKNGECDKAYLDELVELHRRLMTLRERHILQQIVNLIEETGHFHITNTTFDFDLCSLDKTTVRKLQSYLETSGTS
# Beta cell apopt – beta cell apoptosis inhibition; INS-1E cytokine-induced death, ATP luminescence, 48 h; percent of positive-control rescue, neutral wells zero; protection from apoptosis, % (test concentration not listed); 0.8% of 300,000 active; AID 435005;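 active = all replicates at 75% or more, or half of them and the mean; inconclusive = half reach 75% but not the mean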;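 note: 0% = cytokine-treated negative control wells and 100% = positive control rescue; higher means more ATP so stronger rescue from cytokine killing; wells of about 40 µL received 100 nL stock; the first replicate is given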
# Calb FLC – C. albicans growth modulation with fluconazole. C. albicans CaCi-2 (fluconazole-resistant clinical isolate) + fluconazole, Alamar Blue growth, 48 h. growth inhibition, % (test concentration not listed). 0.57% of 300,000 active;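 active = most replicates above 75%; inconclusive = exactly half above 75%; inactive = most below 75%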;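 note: all wells also contain fluconazole at 8 µg/ml as a sub-toxic cotreatment; 0% = median of DMSO wells and 100% = median of geldanamycin control wells; wells of about 8 µL received 7.5 nL stock; the first replicate is given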
# Bfl-1 A1 inh – inhibitors of the anti-apoptotic protein A1, read as caspase activation; MEF A1-2A-BIM cells, Caspase-Glo 3/7 luminescence, 3 h; percent of clofoctol response, vehicle zero; caspase activation, % (concentration not given with the values); 0.066% of 330,000 active;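 active = over half of replicate activation scores above 10%, or exactly half above 10 with the replicate mean above 10; inconclusive = replicate mean below 10 yet half the replicates above 10; inactive = over half of replicates below 10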;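 note: wells of about 30 µL received 50 nL stock; many hits fall short of the cut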
# Ecoli rRNA inh OD600 – recorded beside Ecoli rRNA inh, whose call it bears; OD600 change, %; measured here: OD600 growth;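 optical density of the mix in the first replicate; 0 = DMSO median and -100 = no signal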
# Ecoli rRNA inh RFP – further read-out of Ecoli rRNA inh, marked with its call; RFP signal change, %; measured here: RFP humanized mutant strains;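 first replicate; 0 = DMSO median and -100 = no signal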
# * marks the source's active call; other numbers are inactive results; ? = inconclusive; . = no result given; & = joins results of further samples.
SMILES,RanGTP-Imp inh,T cruzi repl,Vif A3G,Ecoli rRNA inh,Ecoli rRNA inh OD600,Ecoli rRNA inh RFP,AF4-AF9 inh,Beta cell apopt,Calb FLC,Bfl-1 A1 inh
Cc1ccc(-c2nnc(SCC(=O)N/N=C/c3ccc(C)s3)n2-c2ccccc2)cc1,-2.5,1,.,20,15,1.7,-2.6,-2,4,0.3
CC(Oc1ccc(C(=O)c2ccccc2)cc1)C(=O)Nc1ccc(S(N)(=O)=O)cc1 (stereo unspecified),-1.7,-2,-3%,.,.,.,-9.4,.,0,-0.4
COCc1ccc(C(=O)N2CCCC(C(=O)c3ccc(SC)cc3)C2)s1 (stereo unspecified),3.4,6,.,-15,-40,-8.7,-0.9,-3,3,-2.9
CCc1ccc(NC(=O)CS(=O)CC(=O)Nc2ccc(-n3cnnn3)c(C)c2)cc1 (stereo unspecified),1.5,0,.,-4,-26,3.4,-5.9,.,8,0.4
OC(CSc1ccccc1Cl)CN1CCN(c2ccc(F)cc2)CC1 (stereo unspecified),2.2,21,-2%,.,.,.,.,2,4,2.3
O=C(OCCN(C1=NS(=O)(=O)c2ccccc21)c1ccc(Cl)cc1)c1ccco1,1.4,23,27%,.,.,.,.,3,4,0.6
NC(=O)C1CCN(C(=S)NC2CC3C=CC2C3)CC1 (stereo unspecified),1.5,4,31%,23,6,3.0,3.0,-8,-5,0.0
CNC(=O)CSc1nc2cc(S(=O)(=O)Nc3ccccc3OC)ccc2o1,-4.1,-5,1%,-4,5,-1.3,-1.2,5,0,0.0
CC1C/C(=C\c2ccccc2[N+](=O)[O-])c2nc3ccccc3c(C(=O)O)c2C1 (stereo unspecified),5.6,-19,2%,2,4,0.2,-3.0,-3,2,0.5
COc1ccc(N2CCN(C(=O)c3ccc4ccccc4n3)CC2)cc1,-0.2,9,.,-3,-2,-1.4,-2.5,8,-6,0.4
Nc1ccccc1SCC(=O)Nc1nc(-c2ccccc2)cs1,1.1,-9,-5%,-32,-45,-6.6,0.9,-11,-25,0.4
COc1ccc(-n2c(C)cc(/C=C(\C#N)C(=O)NCc3ccco3)c2C)cc1,3.8,8,-6%,6,11,3.6,3.2,1,10,0.1
COc1cccc(NC(=S)N2CCCN(Cc3ccc(F)cc3)C2)c1,4.3,33,.,-7,5,-2.1,-0.6,-5,-4,-0.4
CCOC(=O)c1c(C)nc(C)c2c(=O)oc3ccccc3c12,-3.0,-1,.,3,6,2.3,-1.7,-4,45,1.1
O=C(Nc1ccc(F)c(F)c1)C1CCCN(S(=O)(=O)c2cccc3nonc23)C1 (stereo unspecified),3.2,4,.,5,-4,-0.9,-4.3,6,-5,0.7
CCn1c(CCNC(=O)c2cccs2)nnc1SCC(=O)Nc1nc(-c2ccccc2)cs1,-0.4,22,-3%,.,.,.,.,-1,16,-1.7
COc1ccc(OC)c(C(=O)COC(=O)CN2C(=O)NC3(CCCCC3C)C2=O)c1 (stereo unspecified),-1.9,-10,0%,-3,-6,1.1,-5.6,-10,0,0.7
CCOC(=O)c1cc2occc2n1CCCN1C(=O)c2ccccc2C1=O,-3.1,5,5%,.,.,.,.,-6,-12,-0.5
COCCn1c(C)cc(C(=O)COC(=O)c2ccc3ncsc3c2)c1C,0.2,-7,-3%,.,.,.,.,-10,0,-1.0
CCOC(=O)N1CCN(S(=O)(=O)c2ccc(C(=O)Nc3ccc(F)cc3F)cc2)CC1,6.4,-147,-3%,.,.,.,.,3,-33,0.0
O=C(c1ccc(C(=O)N2CCOCC2)nc1)N1CCOCC1,-2.1,-25,7%,.,.,.,.,-10,-8,1.6
CC(=O)N1CCN(S(=O)(=O)c2cccc(C(=O)NC3CCCC3)c2)CC1,.,.,.,10,18,0.0,-23,2,.,-0.4
CN(Cc1cnn(C)c1)C(=O)c1cc(COc2c(F)cccc2F)on1,0.5,-10,-9%,12,19,2.3,-1.4,-3,10,1.2
Clc1ccc2nc(-c3ccc(Br)s3)cn2c1,2.5,-3,-18%,.,.,.,.,3,-1,-4.9
Cn1c(Cl)cnc1C(O)c1ccccc1 (stereo unspecified),-1.6,-6,-4%,11,6,-0.8,7.6,1,-8,0.2

# Going on with the list:
SMILES,RanGTP-Imp inh,T cruzi repl,Vif A3G,Ecoli rRNA inh,Ecoli rRNA inh OD600,Ecoli rRNA inh RFP,AF4-AF9 inh,Beta cell apopt,Calb FLC,Bfl-1 A1 inh
CNC(=O)COC(=O)c1cc(-c2ccc(OC)cc2)nc2ccccc12,-0.7,2,.,-4,-7,-0.4,-1.9,0,-9,-2.6
Cc1nonc1CC(=O)NC1CC(C)(C)Cc2c1cnn2-c1ccc(F)cc1 (stereo unspecified),0.4,-12,.,0,-3,0.3,-0.6,-1,3,1.0
COc1ccc(-c2ccc(C#N)c(OC)n2)cc1,-1.2,-20,-10%,1,0,-0.6,-5.2,.,2,-2.0
CC1Cc2ccccc2N1C(=O)CN1C(=O)CN(C)C(=O)c2ccccc21 (stereo unspecified),0.6,1,1%,.,.,.,.,-3,-2,-0.2
CC(C)Oc1ccc(C(=O)NCC(=O)OCC(=O)N(C)Cc2cccs2)cc1,0.7,-13,?,15,21,-3.5,-0.8,-4,2,-0.3
COc1cc(C#N)c(N=C(SCC#N)N2CCOCC2)cc1OC,-0.8,-10,.,9,10,4.7,-3.2,-4,-8,-0.2
COc1cc(OC)c(S(=O)(=O)NCc2cccnc2)cc1NC(C)=O,-3.1,-7,.,9,2,-6.3,-1.1,1,-7,0.0
CCNC(=S)NNC(=O)c1cc(-c2ccc(OC)cc2)nc2ccccc12,3.3,-24,6%,.,.,.,.,53,99*,-7.2
CCCCCc1nc(-c2nonc2N)no1,-1.6,1,-2%,.,.,.,.,0,8,0.7
CCOC(=O)c1cc2c(ccn2C)n1CC(=O)Nc1ccc(F)cc1,-0.1,-10,.,12,20,4.0,1.5,-1,-20,0.9
CSc1sc(C(=O)NC(=O)NCc2ccncc2)c(C)c1-c1ccon1,-3.6,3,.,-2,1,11,0.6,-9,19,0.1
CCOc1ccc(N2CC(C(=O)N3CC(C)OC(C)C3)CC2=O)cc1 (stereo unspecified),-0.6,0,-5%,3,9,-0.9,2.0,0,-5,0.4
Cc1ccn(-c2ccc([N+](=O)[O-])cc2)n1,3.3,-9,16%,.,.,.,.,-7,-3,-3.0
O=c1c2c(-c3cccs3)csc2ncn1-c1ccccc1,-0.9,11,9%,.,.,.,.,-4,0,-0.9
CC(C)CN(C(=O)c1cccc(S(=O)(=O)N2CCN(c3ccc(F)cc3)CC2)c1)C1CCS(=O)(=O)C1 (stereo unspecified),1.3,35,-2%,1,-8,1.6,-1.3,-11,1,1.8
Cc1cc(C)n(CC(=O)NN)n1,-5.4,-14,2%,17,7,-8.4,-1.4,-7,-15,2.8
COC(=O)c1cn(C)c2ccc(S(=O)(=O)N3CC(C)CC(C)C3)cc2c1=O (stereo unspecified),3.3,-5,-1%&-9%,.,.,.,.,0,-9,0.6
COCCNC(=O)C1CC(=O)N(c2ccc(OC)cc2)C1c1ccc(OC)cc1 (stereo unspecified),-5.6,-3,1%,11,1,-11,-2.0,4,-11,-0.2
CCCCNCc1cc(OCC)c(OCC)cc1Br,-2.5,20,?,3,24,3.2,-0.2,-1,-3,0.0
Cc1ccc(S(=O)(=O)N2[C@@H](c3ccccc3)C(C(=O)O)=CC[C@H]2c2ccc(C(C)C)cc2)cc1,.,.,.,-31,-47,16,-4.1,-1,.,0.7
Cc1ccccc1-n1c(=O)cc(N2CCCCCC2)[nH]c1=O,145*,-6,-10%,8,4,-1.2,7.3,1,-5,0.3
CC(O)CSc1nc2c(c(=O)[nH]c(=O)n2C)n1Cc1ccccc1Cl (stereo unspecified),-1.0,2,.,5,11,1.2,-16,4,-2,0.3
COc1ccc(Cl)cc1NC(=S)NCCCN1CCCC1=O,1.1,-6,.,4,7,-7.5,-0.9,-1,25,0.2
CN1/C(=C\C(=S)Nc2ccccc2)C(C)(C)c2ccccc21,-2.5,36,.,.,.,.,11,120*,-31,1.3
Nc1nonc1-n1nnc(C(=O)N/N=C/c2ccccc2Cl)c1-c1ccc2c(c1)OCO2,1.7,-4,.,19,17,3.4,-4.3,4,4,0.9

# The list goes on; the last 2 above are carried over.
SMILES,RanGTP-Imp inh,T cruzi repl,Vif A3G,Ecoli rRNA inh,Ecoli rRNA inh OD600,Ecoli rRNA inh RFP,AF4-AF9 inh,Beta cell apopt,Calb FLC,Bfl-1 A1 inh
CN1/C(=C\C(=S)Nc2ccccc2)C(C)(C)c2ccccc21,-2.5,36,.,.,.,.,11,120*,-31,1.3
Nc1nonc1-n1nnc(C(=O)N/N=C/c2ccccc2Cl)c1-c1ccc2c(c1)OCO2,1.7,-4,.,19,17,3.4,-4.3,4,4,0.9
C=CCN1C=C2C(=O)C(C)(OC(=O)C3CCCC3)C(=O)C(c3ccccc3)=C2C=C1CCCC(=O)OC (stereo unspecified),-7.6,14,?,22,7,14,4.2,-1,7,0.1
Cc1ccc(S(=O)(=O)N2CCOCC2)cc1NC(=O)c1ccc(F)cc1F,.,.,.,10,7,-1.5,-0.8,0,.,0.2
O=C(CSc1nc(=O)n(CCN2CCOCC2)c2c1CCCC2)Nc1cccc([N+](=O)[O-])c1,-2.3,13,-1%,9,9,-2.2,-32,.,2,1.0
O=C(COc1cccc2c1CCNC2=O)Nc1cccc(F)c1,2.8,-2,1%,4,15,5.5,-1.0,0,-2,0.1
Cc1noc(COc2ccccc2OCC(N)=O)c1Cl,?,-20,23%,.,.,.,.,-4,-4,0.5
COc1cc(NC(=O)C2CC3CCC2C3)c(OC)cc1Cl (stereo unspecified),-2.8,8,.,-27,-33,-6.2,-2.6,.,-1,0.0
CN1/C(=C\C=C2/C(=O)Oc3ccccc3C2=O)C(C)(C)c2ccccc21,-275,12,-14%,23,12,34,-1.1,2,0,0.3
CC1(c2ccccc2)NC(=O)N(CC(=O)N2CCOCC2)C1=O (stereo unspecified),3.8,0,5%,.,.,.,.,-3,27,0.7
CCc1nc2cc(CC(=O)O)ccc2o1,2.4,1,-1%,.,.,.,.,-7,-9,0.6
CC(C)c1nc(CNC(=O)CC2C(=O)NCCN2Cc2ccc(F)cc2Cl)cs1 (stereo unspecified),6.1,4,.,5,6,-1.3,0.0,-3,-6,-0.2
CC12CN(C(=O)c3ccco3)CC(c3ccccc3)(CN(C(=O)c3ccco3)C1)C2=O,-2.8,-12,18%,.,.,.,.,1,-5,-0.1
CC1=C2C(=O)OC(c3ccoc3)C2(C)CCC1 (stereo unspecified),-10,-6,-1%,.,.,.,.,.,-4,0.7
O=C(NCCCn1ccnc1)c1cn(-c2ccccc2)nc1-c1ccc(F)cc1,7.0,4,?,3,-3,-1.0,7.9,0,14,1.0
CCN(C(=O)COC(=O)COc1ccc(Cl)c(C)c1)C1CCS(=O)(=O)C1 (stereo unspecified),.,.,0%,10,11,1.0,0.1,-1,.,-0.5

# Screens deposited in PubChem by several laboratories.

# Not all compounds are listed. The share of hits here may be higher or lower than overall.
